Assay outcomes (PubChem BioAssay)
FGF22 binding = binders of human FGF22 protein, primary screen, FGF22 synaptogenesis inhibitor project, biophysical, thermal shift, single point. recombinant FGF22 thermal shift, SYPRO orange fluorescence; percent of sucrose octasulfate shift, DMSO zero. calls only at 9.99 µM. hit rate 1.5% among 340,000;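 active = melting point raised past a set limit in the mean and every replicate; inconclusive = no clear call; three in four hits are not shown here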
Target sequence (Q9HCT0 whole entry, looked up): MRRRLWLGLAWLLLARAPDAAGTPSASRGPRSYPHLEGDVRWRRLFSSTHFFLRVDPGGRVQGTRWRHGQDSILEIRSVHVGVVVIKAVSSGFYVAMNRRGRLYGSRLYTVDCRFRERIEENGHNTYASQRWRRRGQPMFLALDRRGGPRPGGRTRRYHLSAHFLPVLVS
MLL AF4-AF9 inh = inhibitors of AF4 peptide binding to AF9, primary screen, biochemical, AlphaScreen, biotin-AF4 peptide, FLAG-AF9, single point | inhibition, % at 10 µM | hit rate 0.47% among 350,000 | AID 651704, 2012;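 active = every replicate reaching a set inhibition limit, whatever the replicate mean, cut at about 25% in these data; inconclusive = mean inhibition reaches that limit but some replicates miss it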;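 note: 0% = plate neutral control median and 100% = total signal loss; the record names both 10 and 1 µM as test concentration; the first replicate is given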
Target sequence (P42568 whole entry, looked up): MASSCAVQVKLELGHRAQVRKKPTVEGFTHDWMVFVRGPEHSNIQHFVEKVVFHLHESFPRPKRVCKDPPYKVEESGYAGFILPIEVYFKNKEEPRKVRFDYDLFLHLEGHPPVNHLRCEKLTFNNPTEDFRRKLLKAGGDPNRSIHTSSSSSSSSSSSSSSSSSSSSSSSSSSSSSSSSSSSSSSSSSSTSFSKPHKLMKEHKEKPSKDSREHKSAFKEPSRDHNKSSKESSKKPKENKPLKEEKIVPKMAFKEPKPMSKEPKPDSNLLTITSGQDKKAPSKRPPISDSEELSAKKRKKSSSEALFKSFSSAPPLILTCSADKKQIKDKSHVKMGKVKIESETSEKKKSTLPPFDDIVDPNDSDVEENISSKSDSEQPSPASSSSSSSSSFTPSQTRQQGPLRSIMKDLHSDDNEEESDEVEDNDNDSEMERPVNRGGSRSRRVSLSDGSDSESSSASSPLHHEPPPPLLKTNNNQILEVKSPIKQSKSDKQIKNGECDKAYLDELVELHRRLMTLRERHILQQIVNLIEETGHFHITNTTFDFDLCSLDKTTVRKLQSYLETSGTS
The depositor's hits bear a star; i = inactive; ? = inconclusive. Some of the compounds tested, so the mix of outcomes need not match the whole.

SMILES	FGF22 binding	MLL AF4-AF9 inh
COc1ccc(CN(C)C[C@H]2OCCCC[C@H](C)Oc3ccc(NC(=O)NC4CCCCC4)cc3C(=O)N([C@H](C)CO)C[C@H]2C)cc1	i	7.3
C[C@H](CO)N1C[C@H](C)[C@H](CN(C)C(=O)CN(C)C)Oc2cc(C#Cc3ccccc3)ccc2S1(=O)=O	i	16.3
COc1ccc2c3c(n(C)c2c1)[C@@H](CO)N(CC1CCCCC1)CC31CCN(Cc2nccs2)CC1	i	?
COc1cccc(CN2CC3(CN(C(C)=O)C3)c3c(n(C)c4cc(OC)ccc34)[C@@H]2CO)c1	i	1.4
C[C@@H]1CN([C@H](C)CO)S(=O)(=O)c2ccc(-c3ccncc3)cc2O[C@H]1CN(C)C(=O)Nc1ccc(F)cc1	i	-1.1
COCC(=O)N1C[C@H](C)[C@@H](OC)CN(C)C(=O)c2ccc(NC(=O)c3ccc(OC)cc3)cc2OC[C@@H]1C	i	-4.8
Cc1ccc(S(=O)(=O)N(C)C[C@@H]2Oc3c(NC(=O)CCCCCC(=O)Nc4ccccc4N)cccc3C(=O)N([C@H](C)CO)C[C@@H]2C)cc1	i	-1.7
COc1ccc(NC(=O)N(C)C[C@@H]2Oc3ccc(NS(=O)(=O)c4ccc(OC)cc4)cc3CC(=O)N([C@@H](C)CO)C[C@H]2C)cc1	i	2.4
COc1cccc(C(=O)Nc2ccc3c(c2)C(=O)N(C)[C@@H]2CC[C@H](CC(=O)NCc4ccccc4F)O[C@@H]2CO3)c1	i	-1.6
C[C@H]1CN([C@@H](C)CO)C(=O)c2cc(C3=CCCCC3)cnc2O[C@H]1CN(C)Cc1ccncc1	i	-3.1
O=C(c1ccc(F)cc1)N1C[C@H]2[C@@H](c3ccccc31)[C@H](CO)N2Cc1ccc2c(c1)OCO2	i	6.6
C[C@H](CO)N1C[C@H](C)[C@H](CN(C)Cc2ccc(C(=O)O)cc2)Oc2ccc(NC(=O)Nc3cccc4ccccc34)cc2CC1=O	i	0.6
CN1C(=O)c2cc(NC(=O)C3CCCCC3)ccc2OC[C@H]2O[C@H](CC(=O)NCc3ccccc3F)CC[C@H]21	i	-0.8
CCCNC(=O)C[C@H]1C[C@@H]2c3cc(N(C)C)ccc3O[C@@H]2[C@@H](CO)O1	i	0.2
C[C@H]1CN([C@@H](C)CO)C(=O)c2cc(N(C)C)ccc2O[C@@H]1CN(C)S(C)(=O)=O	i	-0.5
COc1ccc(S(=O)(=O)Nc2cccc3c2O[C@H](CN(C)C(=O)Nc2ccc4c(c2)OCO4)[C@H](C)CN([C@@H](C)CO)C3=O)cc1	i	1.4
C[C@@H]1CN([C@@H](C)CO)C(=O)c2cc(-c3ccc(F)cc3)cnc2O[C@H]1CN(C)C(=O)c1ccccc1F	i	-7.2
COc1ccc(CN(C)C[C@@H]2Oc3c(NC(=O)Nc4ccc(OC)cc4)cccc3C(=O)N([C@H](C)CO)C[C@H]2C)cc1	i	1.1
C[C@H](CO)N1C[C@H](C)[C@H](CN(C)C(=O)Cc2ccncc2)Oc2ncc(C3=CCCC3)cc2C1=O	i	-5.3
Cc1ccc(S(=O)(=O)N(C)C[C@@H]2Oc3ccc(NC(=O)CCC(F)(F)F)cc3C(=O)N([C@@H](C)CO)C[C@@H]2C)cc1	i	-0.5
COC(=O)C[C@@H]1CC[C@H]2[C@@H](COc3ccc(NC(=O)c4ccccc4)cc3C(=O)N2C)O1	i	-0.7
C[C@@H]1CCCCO[C@@H](CN(C)C)[C@H](C)CN([C@H](C)CO)C(=O)c2cc(NC(=O)CCCCCC(=O)Nc3ccccc3N)ccc2O1	i	8.1
O=C(C[C@@H]1C[C@@H]2c3cc(NC(=O)C4CCC4)ccc3O[C@@H]2[C@H](CO)O1)NCc1cccnc1	i	-14.3
C[C@@H]1CCCCO[C@H](CN(C)C(=O)Nc2cccc3ccccc23)[C@@H](C)CN([C@H](C)CO)C(=O)c2cc(NS(=O)(=O)c3ccccc3)ccc2O1	i	3.0
CCC(=O)N(C)C[C@H]1Oc2ncc(-c3ccccc3F)cc2C(=O)N([C@@H](C)CO)C[C@H]1C	i	-1.4
O=S(=O)(N[C@H]1CC[C@@H](CCn2cc(-c3cccnc3)nn2)O[C@H]1CO)c1ccc(F)cc1	i	-0.1
O=C(C[C@H]1CC[C@@H](NC(=O)C2CCOCC2)[C@@H](CO)O1)NCc1ccccc1Cl	i	-17.1
COCC1=C([C@H](O)c2ccccc2)[C@H](CO)n2c(=O)n(-c3ccccc3)c(=O)n2C1	i	-1.5
C[C@H]1CN([C@@H](C)CO)C(=O)c2cc(NC(=O)Nc3ccc4c(c3)OCO4)ccc2O[C@H]1CN(C)Cc1ccncc1	i	0.9
C[C@H](CO)N1C[C@H](C)[C@H](CN(C)Cc2ccncc2)OCCCC[C@H](C)Oc2ccc(NC(=O)Nc3ccc(C(F)(F)F)cc3)cc2C1=O	i	-1.8
CC(C)NC(=O)N(C)C[C@@H]1Oc2cc(C3=CCCC3)ccc2S(=O)(=O)N([C@@H](C)CO)C[C@@H]1C	i	-8.1
COc1ccc(NC(=O)Nc2ccc3c(c2)CC(=O)N([C@@H](C)CO)C[C@@H](C)[C@@H](CN(C)C)O3)cc1	i	1.0
O=C(C[C@@H]1C[C@H]2c3cc(NC(=O)c4cccnc4)ccc3O[C@H]2[C@H](CO)O1)NCc1ccccn1	i	2.1
C[C@H]1CN([C@@H](C)CO)C(=O)c2cccc(NS(=O)(=O)c3cn(C)cn3)c2O[C@@H]1CN(C)S(=O)(=O)c1ccc(Cl)cc1	i	-0.3
C[C@H]1CN([C@@H](C)CO)C(=O)Cc2cc(NC(=O)Cc3cn(C)c4ccccc34)ccc2O[C@@H]1CN(C)C(=O)Nc1ccccc1	i	-4.6
C[C@H](CO)N1C[C@H](C)[C@H](CN(C)C)Oc2cc(C#Cc3ccccc3)ccc2S1(=O)=O	i	8.3
CN(C)Cc1cn(CC[C@H]2CC[C@@H](N)[C@H](CO)O2)nn1	i	-2.2
COc1ccc(S(=O)(=O)Nc2ccc3c(c2)C(=O)N([C@@H](C)CO)C[C@H](C)[C@H](CN(C)Cc2ccc(C(=O)Nc4ccccc4N)cc2)O3)cc1	i	-0.6
C[C@@H]1CCCCO[C@H](CN(C)C(=O)C2CCCCC2)[C@@H](C)CN([C@H](C)CO)C(=O)c2cc(NC(=O)Cc3ccccc3)ccc2O1	i	0.1
Cn1cnc(CCNC(=O)C[C@@H]2CC[C@@H]3[C@H](COC[C@@H](O)CN3C(=O)Nc3ccc(C(F)(F)F)cc3)O2)c1	i	4.5
C[C@@H]1CN([C@H](C)CO)C(=O)c2cccc(NS(=O)(=O)c3ccc(F)cc3)c2O[C@H]1CN(C)C(=O)NC1CCCCC1	i	-0.6
Cc1noc(C)c1NC(=O)N(C)C[C@@H]1Oc2ccc(NS(=O)(=O)c3ccc(F)cc3)cc2CC(=O)N([C@@H](C)CO)C[C@H]1C	i	0.0
O=C(C[C@H]1C[C@H]2c3cc(NS(=O)(=O)c4ccccc4)ccc3O[C@H]2[C@@H](CO)O1)NC1CCCCC1	i	2.3
CN1C(=O)c2cc(NC(=O)c3ccccc3)ccc2OC[C@@H]2O[C@@H](CC(=O)O)CC[C@H]21	i	-1.3
COCC#Cc1cnc2c(c1)C(=O)N([C@H](C)CO)C[C@H](C)[C@H](CN(C)S(=O)(=O)c1cccc(OC)c1)O2	i	-6.7
C[C@H](CO)N1C[C@H](C)[C@H](CN(C)C(=O)Nc2ccc(F)cc2)Oc2ncc(-c3cccnc3)cc2C1=O	i	-0.8
C[C@H]1CN([C@@H](C)CO)S(=O)(=O)c2ccc(-c3ccc(C#N)cc3)cc2O[C@H]1CN(C)Cc1ccccn1	i	0.1
C[C@H](CO)N1C[C@H](C)[C@H](CN(C)C(=O)C2CC2)Oc2cc(C#C[C@@H](C)O)ccc2S1(=O)=O	i	-2.1
C[C@H]1CN([C@@H](C)CO)C(=O)c2cc(NC(=O)Cn3cnnn3)ccc2O[C@H]1CN(C)C(=O)NC1CCCCC1	i	-0.2
CO[C@@H]1CN(C)C(=O)c2ccc(NC(=O)Nc3ccc(Cl)cc3)cc2OC[C@H](C)N(C)C[C@@H]1C	i	5.9
C[C@H]1CN([C@@H](C)CO)C(=O)Cc2cc(NC(=O)C3CC3)ccc2O[C@H]1CN(C)S(C)(=O)=O	i	-1.4
C[C@@H]1CN([C@@H](C)CO)S(=O)(=O)c2ccc(C#CC3CC3)cc2O[C@@H]1CN(C)C	i	-9.5
C[C@@H]1CN([C@H](C)CO)C(=O)Cc2cc(N(C)C)ccc2O[C@@H]1CN(C)Cc1ccc(Oc2ccccc2)cc1	i	51.2*
CCC(=O)Nc1ccc2c(c1)OC[C@@H](C)N(C(=O)c1ccncc1)C[C@@H](C)[C@@H](OC)CN(C)C2=O	i	-0.2
COc1cccc(S(=O)(=O)Nc2ccc3c(c2)C(=O)N(C)[C@@H]2CC[C@H](CC(=O)NCC4CCCCC4)O[C@@H]2CO3)c1	i	-2.5
CO[C@H]1CN(C)C(=O)c2ccc(NC(=O)Nc3cc(F)ccc3F)cc2OC[C@H](C)N(C)C[C@@H]1C	i	-3.4
C[C@@H]1CCCCO[C@H](CN(C)C(=O)Cc2ccccc2)[C@@H](C)CN([C@@H](C)CO)C(=O)c2cc(NC(=O)Nc3ccccc3)ccc2O1	i	2.8
Cc1ccc(S(=O)(=O)N[C@H]2C=C[C@H](CC(=O)NCCc3ccncc3)O[C@H]2CO)cc1	i	-0.9
CC(=O)NC[C@@H]1[C@H](c2ccc(-c3ccccc3F)cc2)[C@@H](CO)N1C(=O)C1CC1	i	4.5
CC(C)CC#Cc1ccc([C@@H]2[C@H](CO)N3CCCCN(C(=O)NC4CCCC4)C[C@@H]23)cc1	i	-1.2

Reprinted at random: four compounds from above.
SMILES	FGF22 binding	MLL AF4-AF9 inh
C[C@H]1CN([C@@H](C)CO)S(=O)(=O)c2ccc(-c3ccc(C#N)cc3)cc2O[C@H]1CN(C)Cc1ccccn1	i	0.1
Cc1noc(C)c1NC(=O)N(C)C[C@@H]1Oc2ccc(NS(=O)(=O)c3ccc(F)cc3)cc2CC(=O)N([C@@H](C)CO)C[C@H]1C	i	0.0
CCC(=O)Nc1ccc2c(c1)OC[C@@H](C)N(C(=O)c1ccncc1)C[C@@H](C)[C@@H](OC)CN(C)C2=O	i	-0.2
C[C@@H]1CCCCO[C@H](CN(C)C(=O)Cc2ccccc2)[C@@H](C)CN([C@@H](C)CO)C(=O)c2cc(NC(=O)Nc3ccccc3)ccc2O1	i	2.8

More records:
SMILES	FGF22 binding	MLL AF4-AF9 inh
Cc1cc(C(=O)Nc2ccc3c(c2)C(=O)N(C)[C@@H]2CC[C@@H](CC(=O)N[C@@H](C)c4ccccc4)O[C@H]2CO3)no1	i	-1.2
O=C(C[C@@H]1CC[C@H](NS(=O)(=O)c2cccc(F)c2)[C@@H](CO)O1)N1CCCCC1	i	-4.9
N#Cc1ccc(-c2ccc([C@@H]3[C@H](CO)N4CCCCN(C(=O)Nc5ccc(F)cc5)C[C@@H]34)cc2)cc1	i	-4.0
CO[C@H]1CN(C)C(=O)c2ccc(NC(=O)C3CC3)cc2OC[C@@H](C)N(C(=O)c2cccnc2)C[C@@H]1C	i	-1.5
CO[C@@H]1CN(C)C(=O)c2ccc(NC(=O)c3ccccc3F)cc2OC[C@H](C)N(CC2CCOCC2)C[C@H]1C	i	-1.0
Cc1noc(C)c1S(=O)(=O)Nc1ccc2c(c1)CC(=O)N([C@@H](C)CO)C[C@H](C)[C@H](CN(C)C(=O)NC(C)C)O2	i	-1.6
COc1ccccc1NC(=O)Nc1ccc2c(c1)C(=O)N(C)C[C@@H](OC)[C@H](C)CN(Cc1ccccc1Cl)[C@H](C)CO2	i	3.2
C[C@H]1CN([C@@H](C)CO)C(=O)c2ccccc2-c2ccccc2CO[C@H]1CN(C)S(=O)(=O)c1ccccc1F	i	0.7
C[C@@H]1CN([C@H](C)CO)C(=O)c2cc(C#CC3(O)CCCC3)cnc2O[C@@H]1CN(C)Cc1ccncc1	i	-1.6
COc1cccc(NC(=O)N(C)C[C@@H]2OCc3cnnn3CCCC(=O)N([C@@H](C)CO)C[C@@H]2C)c1	i	0.5
C[C@H]1CN([C@@H](C)CO)S(=O)(=O)c2ccc(C#Cc3ccc(F)cc3)cc2O[C@H]1CN(C)S(C)(=O)=O	i	-1.6
CC(C)C#Cc1ccc2c(c1)O[C@H](CN(C)Cc1ccncc1)[C@H](C)CN([C@H](C)CO)S2(=O)=O	i	7.5
Cc1cc(C(=O)Nc2cccc3c2O[C@H](CN(C)CC2CC2)[C@H](C)CN([C@H](C)CO)C3=O)n(C)n1	i	-3.5
CCCN1C[C@@H](C)[C@H](OC)CN(C)C(=O)c2ccc(NC(=O)c3ccc4c(c3)OCO4)cc2OC[C@H]1C	i	1.9
CO[C@H]1CN(C)C(=O)c2cc(C#N)ccc2OCC[C@@H]2CC[C@@H](OC)[C@@H](CN(C)C(=O)[C@H]1C)O2	i	2.4
CN(C)Cc1cn(CC[C@H]2CC[C@@H](NS(=O)(=O)c3ccc(-c4ccccc4)cc3)[C@H](CO)O2)nn1	i	-1.9

A draw from above in order of heavy-atom count, highest first:
SMILES	FGF22 binding	MLL AF4-AF9 inh
Cc1noc(C)c1S(=O)(=O)Nc1ccc2c(c1)CC(=O)N([C@@H](C)CO)C[C@H](C)[C@H](CN(C)C(=O)NC(C)C)O2	i	-1.6
Cc1cc(C(=O)Nc2cccc3c2O[C@H](CN(C)CC2CC2)[C@H](C)CN([C@H](C)CO)C3=O)n(C)n1	i	-3.5
O=C(C[C@@H]1CC[C@H](NS(=O)(=O)c2cccc(F)c2)[C@@H](CO)O1)N1CCCCC1	i	-4.9
